Screening data from PubChem BioAssay.
PrP UTR inh = inhibition of PrP 5' UTR reporter expression; inhibition, % (no concentration beside the values); 0.35% of 340,000 active; cell-based PrP 5' UTR mRNA reporter, plate reader;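 active means every replicate at 50% or more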;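 further: 0 = median of the neutral control wells; tested in H4 reporter cells; numbers are from one replicate; inactives centre near -14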
BJeLR viability = MLPCN primary cell-based screen for lethality selective to Ras in HRASV12 cells; BJeLR (HRASV12) viability, CellTiter-Glo ATP luminescence, 48 h; reference of the scale not given here; inhibition, % (no concentration beside the values); 0.17% of 300,000 active; AID 1554, 2009;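 active means replicate mean above 50%; inconclusive means above 50% but judged a plate artefact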;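 further: 50 nL library stock added to about 25 µL; numbers are from one replicate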
ugtP null kill = growth inhibition of ugtP-null S. aureus, primary screen, RN4220 ugtP deletion, OD600; 0.54% of 330,000 active; AID 1259309, 2017; growth inhibition, % (test concentration not listed); 16 h; some inactives read as strong as hits;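 active means z-score under -3 and OD600 up to 0.15 on both plates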;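 further: plate controls were untreated wells for no effect and antibiotic for full effect; wells of about 80 µL received 100 nL stock; the first replicate is given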
Bead autofluor = flagged as autofluorescent in microsphere protease counterscreen; compound autofluorescence counterscreen, microsphere flow cytometry; hits give high values; fluorescence intensity (test concentration not listed); 3.1% of 360,000 active; AID 624483;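 active means at least 3 SD above the mean of all compounds, about 16000 in these data; inconclusive means too few beads counted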;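 further: 100 nL of 1 mM stock went into each well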
Sa RN4220 lethal = growth inhibition of S. aureus RN4220, primary screen, OD600; 16 h; inhibition, % (test concentration not listed); 0.33% of 330,000 active;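 active means z-score of -3 or lower and OD600 up to 0.18 on both plates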;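 further: plate controls were untreated cells for no effect and reference antibiotic for full effect; stock transfer was 100 nL into about 80 µL; one replicate is shown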
Mtb hypoxia inh = PubChem AID 1159583 | M. tuberculosis hypoxia-regulated fluorescent reporter, fluorescence | fluorescence inhibition, % (concentration not given with the values) | 0.1% of 300,000 active;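 active means 35 to 45% if threefold the growth effect, above 45% if 1.5-fold the growth effect; inactive means the rest, general growth blockers included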;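 further: wells of about 50 µL received 100 nL stock; 0% = vehicle wells and 100% = reference inhibitor wells; whole bacteria with a GFP reporter of the hypoxia response; strong numbers were not always called active; many hits fall short of the cut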
Mtb hypoxia inh growth = recorded beside Mtb hypoxia inh, whose call it bears; growth inhibition, %; measured here: M. tuberculosis growth (absorbance);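 0% = vehicle and 100% = reference antibiotic; read after six days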
* marks the source's active call; other numbers are inactive results; ? = inconclusive; / = no result given.

The opening 3 records, to show the layout:
Every second line gives: PrP UTR inh, BJeLR viability, ugtP null kill, Bead autofluor, Sa RN4220 lethal, Mtb hypoxia inh, Mtb hypoxia inh growth
(1) COc1cccc(C(=O)N(Cc2ccco2)Cc2cc3cccc(C)c3[nH]c2=O)c1
  -17, -1, -3, 5322, 3.3, 4, 10
(2) Cc1cccc(NC(=O)C2CCCN(C(=O)Nc3ccccc3)C2)c1C (configuration not stated)
  1, 15, 3, 22928*, 3.1, -5, 10
(3) CCCCNC(=S)N(C)N=Cc1ccc(OCC(=O)Nc2ccc(OC)cc2)c(OC)c1
  /, /, -7, /, 27, 3, 2

Main list, from the start:
Every second line gives: PrP UTR inh, BJeLR viability, ugtP null kill, Bead autofluor, Sa RN4220 lethal, Mtb hypoxia inh, Mtb hypoxia inh growth
(1) COc1cccc(C(=O)N(Cc2ccco2)Cc2cc3cccc(C)c3[nH]c2=O)c1
  -17, -1, -3, 5322, 3.3, 4, 10
(2) Cc1cccc(NC(=O)C2CCCN(C(=O)Nc3ccccc3)C2)c1C (configuration not stated)
  1, 15, 3, 22928*, 3.1, -5, 10
(3) CCCCNC(=S)N(C)N=Cc1ccc(OCC(=O)Nc2ccc(OC)cc2)c(OC)c1
  /, /, -7, /, 27, 3, 2
(4) Cn1c(CNC(=O)c2ccccc2F)nnc1SCC(=O)Nc1nncs1
  -19, -10, -2, 3739, -1.9, -1, -3
(5) O=C1C2C3C=CC(C2C(=O)N1CCO)C1C(=O)N(CCO)C(=O)C31 (configuration not stated)
  -8, -1, 2, 3739, 0.8, 16, -1
(6) NS(=O)(=O)c1ccc(NC(=S)NCc2cccs2)cc1
  -14, 4, -2, 4525, 2.1, 5, -3
(7) COc1ccc(OC)c(C(=O)COC(=O)c2cccnc2SC)c1
  -22, /, 14, 4943, -1.7, -3, 5
(8) CC(C)CN(CC(C)C)C(=O)C1C2c3ccccc3C(c3ccccc32)C1C(=O)O (configuration not stated)
  -17, /, 13, 3309, 9.0, 16, 2
(9) CCC(C)(C(=O)NC1CCCC1)N(C)C(=O)Cc1c[nH]c2ccccc12 (configuration not stated)
  -18, 2, 0, 4143, 2.8, -10, 2
(10) COC(=O)CCCCC1SCC(NC(=O)OC)C1NC(=O)OC (configuration not stated)
  -9, -1, 18, 2568, 24, 9, 6
(11) COc1ccccc1CNC(=O)C1CCN(S(C)(=O)=O)CC1
  -21, 3, -2, 8348, 5.3, 15, 17
(12) NC(N)=NNC(=O)c1ccccc1Cl
  -16, 7, 2, 2039, 6.0, 18, -1
(13) O=C(c1cc2ccccc2o1)N(Cc1ccco1)Cc1cccs1
  -8, 7, 17, 5633, 3.7, 8, -6
(14) O=C(NCc1ccncc1)NC1CCCCC1
  -23, 3, 1, 4170, -0.3, -4, 10
(15) O=C(c1cccc(O)c1)N1CCN(C(=O)C2CC2)CC1
  1, /, 6, 4891, 4.3, 1, 0
(16) CCc1ccc(-c2nc(CN3CCCC(C(=O)NCCc4ccc(OC)c(OC)c4)C3)c(C)o2)cc1 (configuration not stated)
  -9, -3, -10, 21829*, -2.8, -2, 4
(17) C=CCC1(CN2CCCCCC2=O)C(=O)NC(=O)NC1=O
  -17, -4, -6, 3109, -7.6, 12, 14
(18) CN(C)c1ccc(C(=O)n2nnc3ccccc32)cc1
  -12, 8, 9, 4761, 3.5, 18, 8
(19) CCOC(=O)C(=CNc1ccc(C(O)(C(=O)OCC)C(F)(F)F)cc1C)C(=O)OCC (configuration not stated)
  -16, -1, -6, 2106, -0.6, 13, 0
(20) N#CC1(NC(=O)COC(=O)CCCN=C2NS(=O)(=O)c3ccccc32)CCCCC1
  -10, 7, /, 4181, /, /, /
(21) CC(C)=CCC/C(C)=C/CNC(=O)C[C@H]1C[C@H](C(=O)N2CCOCC2)[C@@]2(C)c3[nH]c4cc(-c5ccco5)ccc4c3CCN2C1=O
  -1, /, -3, 3048, -2.9, -7, 2
(22) O=C(Cc1ccccc1)NCC(=O)N1CCN(c2ccccc2)CC1
  -3, -5, 3, 6076, 2.8, 13, 3
(23) CCOC(=O)c1cn(Cc2ccc(Br)cc2)nn1
  -45, 13, 6, 8228, -0.2, /, /
(24) COc1ccc(NC(=O)CN(C)C(=O)c2ccc(NC3CC3)c([N+](=O)[O-])c2)cc1
  -14, -2, 12, 3939, 2.9, 2, -8
(25) Cc1cc(C)n2nc(SCc3nnc(SCc4ccccc4C)s3)nc2n1
  -47, -10, -6, 9937, 3.8, 14, 9
(26) COc1ccc(COC(=O)C2=C(C)NC(=O)NC2c2ccccc2)cc1 (configuration not stated)
  -5, -5, -2, 4033, -3.1, -8, -5
(27) Clc1ccc(CSc2ncn(-c3ccccc3)n2)cc1
  -8, 1, -8, 21528*, 8.0, 0, -1
(28) CC(=O)Nc1ccc(N2C(=O)CC(Sc3nc4ccccc4s3)C2=O)cc1 (configuration not stated)
  -23, -1, 2, 2785, 7.7, -12, -12
(29) Cc1ccc(NC(=O)/C(=C\c2cccnc2)NC(=O)c2ccco2)cc1
  -31, 7, -4, 9405, -1.8, 8, 4
(30) COc1ccc(-n2cc(CNCc3cnc4ccccn34)c(-c3cccc(F)c3)n2)cc1
  -23, -4, 8, 5486, 1.4, -7, -8
(31) O=C1NCCOC(=O)[C@@H](Cc2ccc(F)cc2)CC/C=C/C[C@H]1CC(=O)N(CCO)Cc1ccccc1
  -28, /, 2, 3371, 3.1, 6, 3
(32) COC(=O)CCC(=O)Nc1ccc(C)cc1OC(=O)CCC(=O)OC
  -13, -1, 4, 2811, 1.9, /, /
(33) COc1ccc(-c2nc(CN3CCN(C(=O)c4ccco4)CC3)c(C)o2)cc1OC
  -8, 7, 1, 4539, 1.2, 7, -3
(34) O=C(COC(=O)c1cnc(Cl)c(Cl)c1)NCc1ccco1
  -9, 0, 3, 4482, 6.2, 6, 15
(35) CCCCc1cn([C@@H](CCCCNC(=O)OC(C)(C)C)C(=O)N2CCN(C(=O)OC(C)(C)C)CC2)nn1
  1, -3, -3, 2848, -9.7, 8, 8
(36) COc1ccc(NC(=O)CSc2nnc(-c3ccccn3)n2N)cc1
  -28, 10, -9, 9304, 3.8, 2, 3
(37) CCOc1cc(-c2cc(-c3ccccc3)nc(N)c2C#N)ccc1O
  -45, 5, 0, 5869, 14, 17, 12
(38) COc1ccc(NC(=O)CSc2nc3c(c(=O)[nH]2)CCC3)cc1OC
  -8, 2, -9, 5722, -4.2, /, /
(39) CC([NH2+][O-])C(C)(C)NO (configuration not stated)
  -25, 4, -1, 4915, -4.1, 0, 4
(40) CCN1CCN(C2=C(NS(=O)(=O)c3ccc(NC(C)=O)cc3)C(=O)c3ccccc3C2=O)CC1
  -10, -6, 7, 5744, 11, 20, 6
(41) O=[N+]([O-])c1cccc(CN2CCCCCC2)c1
  -12, -1, 10, 2934, 4.2, -6, 10
(42) O=C(NCC1CCCO1)C1CCCN1C(=O)Nc1ccc(Cl)cc1 (configuration not stated)
  -26, 4, 3, 4680, 5.7, -3, 3
(43) Cc1ccc(OCCNC(=O)CCNS(=O)(=O)c2ccc3ccccc3c2)cc1
  -10, /, -8, ?, -4.2, -2, -1
(44) CCCN(C(=O)COC(=O)c1cc(CC)c(C)s1)c1c(N)n(Cc2ccccc2)c(=O)[nH]c1=O
  -14, 11, -5, 8017, 0.0, 1, 2
(45) CC(=O)c1cccc(NC(=O)c2ccc(NS(C)(=O)=O)cc2)c1
  -13, -4, -3, 4581, 2.5, /, /
(46) COCCn1c(N)c(Sc2ccccc2)c(=O)[nH]c1=O
  -10, -2, 9, 3979, -2.1, 3, -3
(47) Cc1sc(N)c(C#N)c1C
  -8, 2, 8, 1997, 6.7, -1, -3
(48) O=C(CCNC(=O)c1ccccc1Cl)Nc1cccc(S(=O)(=O)N2CCOCC2)c1
  -12, /, 4, 6498, 3.3, 16, 26
(49) O=C1CC(c2ccccc2)n2nc(NS(=O)(=O)c3ccccc3)nc2N1 (configuration not stated)
  -22, /, 4, 4188, 0.9, /, /
(50) COc1cccc(Cn2nnc3c(=O)[nH]c(C4CCCN(C(=O)c5ccccc5Cl)C4)nc32)c1 (configuration not stated)
  -11, -7, -4, 2705, -5.5, 0, 5
(51) CC(=O)Nc1ccc(C(=O)Nc2nc(-c3cc(C)n(Cc4ccccc4)c3C)cs2)cc1
  -26, 9, /, 9381, /, /, /
(52) COc1ccc(C(=O)COC(=O)COc2cccc3c2OC(C)(C)C3)c(OC)c1
  -15, -7, 4, /, 0.8, -9, -4
(53) COc1ccc(N2CCN(C(=O)c3ccc(Cn4nc(C)c([N+](=O)[O-])c4C)o3)CC2)cc1
  10, 5, 9, 6061, -0.6, -5, -1
(54) CC(Oc1ccccc1Cl)C(=O)N(Cc1cccs1)C1CCS(=O)(=O)C1 (configuration not stated)
  5, 2, -7, 4356, 3.9, 5, 5
(55) CC(C(=O)OCC(=O)c1ccc(F)cc1)N1C(=O)C2C3C=CC(C3)C2C1=O (configuration not stated)
  -19, 7, -2, 4292, 0.3, 2, -4
(56) Cc1sc(NC(=O)COc2ccccc2)c(C#N)c1C
  -36, 3, -5, 5542, 1.0, -3, -5
(57) Cc1nn(CC(=O)NCCC2=CCCCC2)c(C)c1[N+](=O)[O-]
  -3, -8, 1, /, 5.4, 6, 7
(58) Cc1ccc(S(=O)(=O)N2CCCC2CNC(=O)C(=O)NC2CCCC2)cc1 (configuration not stated)
  -10, -2, 3, /, 3.1, -9, 5
(59) N#CCc1c(C#N)c(N)nc(N2CCCC2)c1C#N
  -7, -6, -10, 4072, 4.2, 6, 7
(60) COc1ccc(-c2noc(-c3ccccc3Cl)n2)cc1OC
  -90, -7, -5, 8363, 8.5, 6, 12

(cont.)
Every second line gives: PrP UTR inh, BJeLR viability, ugtP null kill, Bead autofluor, Sa RN4220 lethal, Mtb hypoxia inh, Mtb hypoxia inh growth
(61) COC(=O)CCSc1nccn1Cc1ccccc1
  -10, 0, 6, 20544*, 1.4, -1, 7
(62) COC(=O)c1ccc(NC(=O)c2ccc(NC(=O)C3CCCO3)cc2)cc1 (configuration not stated)
  -22, 4, 11, 4940, 3.6, 4, 12
(63) Cc1ccc(Cn2cccc(NC(=O)CCC3CCCC3)c2=O)cc1
  -11, -10, 9, 6030, -5.3, -4, -2
(64) O=C(OCc1cncs1)c1ccccc1Cl
  -28, -5, 3, 4309, 10, 17, 9
(65) O=C(Nc1ccc2c(c1)OCCO2)c1cnc2ccccn2c1=O
  -12, -6, 8, 5296, 2.5, 2, 1
(66) CCN(CC)S(=O)(=O)c1cccc(-n2c(O)c(C=Nc3ccccc3C(=O)O)c3ccccc3c2=O)c1
  -13, 0, -12, 5620, -2.5, -3, -3
(67) O=C(O)CC1(CC(=O)Nc2cccc(C(=O)O)c2)CCCC1
  -3, 9, 1, 3342, 1.9, 9, 1
(68) CCOC(=O)NN=Cc1cc(C)n(-c2ccccc2)c1C
  /, /, 4, /, -1.7, -10, 0
(69) CCCn1c(=O)c2c(C(F)(F)F)cc(-c3ccco3)nc2n(CCC)c1=O
  -21, -2, 4, 9234, -2.5, 2, -3
(70) COc1cc(/C=N/OCC(=O)Nc2cc(C)on2)ccc1OCc1ccccc1
  -35, -4, /, 8475, /, /, /
(71) CCC(C)(C)NC(=O)C(c1cccn1C)N(C(=O)Cn1nnc2ccccc21)c1ccc(F)cc1 (configuration not stated)
  -24, 6, -13, 3668, 7.1, 10, 2
(72) O=C(O)CCCC(=O)NCCCCc1ccccc1
  -40, 0, -8, 11359, -5.6, -6, 2
(73) Cc1ccc(S(=O)(=O)N2CCN(C(=O)C(C)Cn3cncn3)CC2)cc1 (configuration not stated)
  2, -7, 6, 4311, 2.7, -13, -2

3 structures already listed, arranged by SMILES length, low to high:
Every second line gives: PrP UTR inh, BJeLR viability, ugtP null kill, Bead autofluor, Sa RN4220 lethal, Mtb hypoxia inh, Mtb hypoxia inh growth
(65) O=C(Nc1ccc2c(c1)OCCO2)c1cnc2ccccn2c1=O
  -12, -6, 8, 5296, 2.5, 2, 1
(67) O=C(O)CC1(CC(=O)Nc2cccc(C(=O)O)c2)CCCC1
  -3, 9, 1, 3342, 1.9, 9, 1
(62) COC(=O)c1ccc(NC(=O)c2ccc(NC(=O)C3CCCO3)cc2)cc1 (configuration not stated)
  -22, 4, 11, 4940, 3.6, 4, 12
